# From PubChem BioAssay
# CapD inh – Bacillus anthracis CapD inhibitors, primary screen, biochemical, fluorescence intensity; purified CapD enzyme, fluorescence intensity read-out; hits give low values; some hits fall short of the stated cut; z-score (no concentration beside the values); CapD gamma-glutamyltranspeptidase (Bacillus anthracis Ames Ancestor); 140,000 compounds, 0.23% hits; AID 492967, 2010;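 active = z-score under -4 in either of two replicates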;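 note: stock transfer was 100 nL into about 40 µL; score is relative to mean and spread of the plate; one replicate is shown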
# AID504770 – growth inhibition of E. coli YBA685, primary screen, V. cholerae RctB inhibitors; E. coli YBA685 rctB-dependent plasmid, OD600 growth, 3 h; hits give low values; z-score (test concentration not listed); 130,000 compounds, 0.27% hits; AID 504770, 2011;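 active = z-score under -2 on both plates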;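 note: wells of about 30 µL received 100 nL stock; score is relative to mean and SD of the test wells; the first replicate is given; strong numbers were not always called active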
# * = called active by the depositor; nt = no result given; & = joins results of further samples.
structure | CapD inh | AID504770
COc1cccc(NS(=O)(=O)c2cc(C(=O)N3CC(C)CC(C)C3)ccc2NCc2ccc(F)cc2)c1 (stereo not drawn) | 1.6 | nt
COc1ccc(C2C(C(=O)N3CCOCC3)CCC(=O)N2c2ccc(OC)cc2)cc1 (stereo not drawn) | -10* | nt
O=S(=O)(c1ccc(Cl)cc1)N(CCCN1CCOCC1)Cc1cccs1 | -0.89 | -1.1
COC(=O)c1ccc2nc(NC(=O)C3CC3)sc2c1 | 1.1 | 0.4
O=C(Nc1ccccc1C(=O)N/N=C/c1ccc(O)c([N+](=O)[O-])c1)c1cccs1 | -0.84 | nt
CCOC(=O)C1=C(N)Oc2c(c(=O)oc3ccccc23)C1c1cccc([N+](=O)[O-])c1 (stereo not drawn) | 0.2 | nt
CC(C)NC(=O)CCc1nnc2n(Cc3ccccc3)c(=O)c3ccccc3n12 | 29 | -1.1
CC1NC(C(=O)O)Cc2c1[nH]c1ccccc21 (stereo not drawn) | 3 | nt
COC(=O)c1ccc(Oc2ccc(Cl)cc2)nc1 | 0.41 | -0.6
O=S(=O)(c1ccccc1)N1C2C=CC(C2)C1(C(F)(F)F)C(F)(F)F (stereo not drawn) | -0.32 | -1
O=C(OCN1C(=O)c2ccccc2C1=O)c1cccnc1SC(F)F | nt | 2.7
COC(=O)C1=C(C)NC2=C(C(=O)CC(c3ccc(OC)c(OC)c3)C2)C1c1cc(OC)ccc1OC (stereo not drawn) | 1.3 | nt
Cc1ccc(/C(O)=C2\C(=O)C(=O)N3c4ccccc4OC(=O)C23O)cc1 (stereo not drawn) | -0.57 | 0.05
O=C(c1cc2ccccn2n1)N1CCN(c2ccc(Cl)nn2)CC1 | 29 | -0.1
CC1=NN2C(=N)/C(=C/c3cn(CCOc4c(C)cccc4C)c4ccccc34)C(=O)N=C2S1 | -0.44 | -0.55
Cc1ccc(S(=O)(=O)N(C)S(=O)(=O)c2cccc(C(F)(F)F)c2)cc1 | nt | 0
Cc1oc(S(=O)(=O)N2CCCC2)cc1-c1nc(-c2ccc(F)cc2)no1 | -1.2 | -0.7
CCOC(=O)c1oc2cc(O)ccc2c(=O)c1-c1ccc2c(c1)OCCO2 | -0.59 | 1.1
FC(F)(F)c1cccc(-c2nnc(-c3ccc(Cl)cc3)o2)c1 | 0.52 | -0.2
O=C(CCCN1C(=O)S/C(=C\C=C\c2ccccc2)C1=O)Nc1ccc(C(=O)O)cc1 | -0.17 | 1.4

# New compounds follow
structure | CapD inh | AID504770
COC(=O)c1cc(NC(=O)c2cccc(Cl)c2)cc(C(=O)OC)c1 | -0.68 | -1.1
NCCCCCCNS(=O)(=O)c1cccc2c(Cl)cccc12 | -0.56&4.4&-0.73 | nt
Nc1nc(CSc2ncccn2)nc(Nc2ccccc2)n1 | -0.1 | 2
CC1=NN(c2ccccc2)C(=O)C1=C1SCCS1 | -0.72 | -0.1
C=CCN(c1ccc(C(=O)N2CCCC2)cc1)S(C)(=O)=O | -1.1 | 2.2
O=C(O)c1ccc(NC(=O)C2CC(=O)N(CCc3ccccc3)C(=NCCc3ccccc3)S2)cc1 (stereo not drawn) | 0.18 | nt
O=C(CCCc1nc2ccccc2s1)Oc1ccc2c(c1)OCO2 | nt | -0.3
CN(CCOC(=O)c1ccc2c(c1)OCCO2)Cc1ccccc1 | 0.66 | nt
CCN1CN=C(SCc2cccc(C#N)c2)NC1 | 0.12 | 1
O=C1C(c2ccccc2)=C(Nc2cc(C(F)(F)F)cc(C(F)(F)F)c2)c2ccccc21 | 0.99 | nt
COc1ccc(C(=O)CSc2nc3ccccc3[nH]2)c(OC)c1 | -0.89 | -0.7
COc1cccc(OC)c1SC | 0.15 | -0.3
CCOC(=O)N1CCN(C(=O)CNC(=O)Cn2cnc3sc4c(c3c2=O)CCCC4)CC1 | -0.18 | nt
CCOC(=O)N/N=C1/c2ccccc2C2(O)NC(=O)NC12O (stereo not drawn) | 0.15 | -1.9
N#Cc1c(N)nc2sc(C(N)=O)c(N)c2c1-c1ccc(Br)cc1 | -0.61 | nt
CC(C)CN(CC(C)C)C(=O)c1cc2c(=O)n3ccccc3nc2s1 | -1 | 2.8
COc1ccc(-c2nn(CCC#N)cc2C(=O)O)cc1OC | -0.32 | -0.4
COc1cc(CNS(=O)(=O)c2ccc(CN3C(=O)c4ccccc4C3=O)cc2)cc(OC)c1OC | -1.2 | -1.1
C=CCc1cc(OC)cc(CC=C)c1O | 1.4 | -0.7
Cc1ccc2nc(-c3cc(Cl)ccc3NC(=O)CCC(=O)O)c(=O)[nH]c2c1 | nt | -0.4

# Further records
structure | CapD inh | AID504770
S=C1NC2(CCCCCCC2)NN1c1ccccc1 | 0.055 | nt
NC(=O)CSc1nnc(COc2cccc3ccccc23)n1-c1ccccc1 | 0.07 | nt
CC1(C)Cc2ccccc2-c2nc3n(c(=O)c21)CC(C#N)S3 (stereo not drawn) | -0.24 | nt
Cn1ncc(C(=O)NC2CCCCC2)c1-n1cccc1 | 0.19 | -0.6
Cc1cc(N2CCN(CC(=O)N(C)c3ccccc3)CC2)c2ccccc2n1 | -0.8 | nt
O=C(O)CC1(CC(=O)Nc2ccc(-c3cn4c(n3)SCC4)cc2)CCCCC1 | -0.33 | -0.4
O=C1Nc2ccccc2Oc2ccc(S(=O)(=O)N3CCOCC3)cc21 | -0.29 | -0.7
COC(=O)c1cc(-c2ccco2)nc2c1cnn2Cc1ccc2c(c1)OCO2 | nt | 0.1
O=[N+]([O-])c1ccc(N2CCCN(C(=S)Nc3ccc(Cl)cc3Cl)CC2)nc1 | 0.06 | nt
C=CCn1c(SCC(=O)N2CCCCC2)nc2sc3c(c2c1=O)CCCC3 | -0.96 | nt
Cc1ccc(-n2ncc3c(N4CCN(c5ccccc5)CC4)ncnc32)c(C)c1 | -1 | nt
Cc1cccc(N2CCN(C(=O)CCCN3C(=O)c4ccccc4Sc4ncccc43)CC2)c1C | 0.1 | 1
C(=N\NC1=NCCCCC1)/c1ccccc1 | nt | -2.4
CCCNC(=O)CSc1nc(-c2cccs2)cc(C(F)(F)F)n1 | -0.07 | -0.35
O=C(O)CNC(=O)Cc1ccccc1 | -1 | -0.4
CC1(C)c2ssc(=S)c2-c2ccccc2N1C(=O)c1cccc(Br)c1 | -0.59 | nt
CC(=O)Nc1cc2nc(N)sc2cc1NC(C)=O | -0.32 | 0
CC1(C)Cc2cccc(OCCNC(=O)c3cnccn3)c2O1 | 0.13 | 0.6
CN(C)S(=O)(=O)c1ccc(C(=O)OCc2ccccc2F)cc1 | nt | -0.4
O=C(Nc1cc(Cl)cc(Cl)c1)/C(=C\c1ccc2c(c1)OCO2)NC(=O)c1ccccc1Br | 0.91 | nt

# Next part.
structure | CapD inh | AID504770
O=C(Nc1ccccc1)c1c[nH]c(=O)n(-c2ccccc2)c1=O | -0.29 | -0.7
C/C(=N\OCc1ccc(C#N)cc1)c1ccc2c(c1)OCCO2 | nt | -0.35
CCC(C)N=Cc1c(O)[nH]c(=S)[nH]c1=O (stereo not drawn) | -2.4 | 0.15
COc1cc(-c2nc3sc4c(c3c(=O)[nH]2)CCCC4)cc(Cl)c1OCc1ccccc1F | 0.08 | nt
S=C1NCN(Cc2ccccc2)CN1CC1CCCO1 (stereo not drawn) | 30 | 1.3
O=C(O)CC(Cc1ccccc1)c1ccc2c(c1)OCO2 (stereo not drawn) | 0.41 | 0.45
NNC(=S)NCCc1ccccc1 | -0.33 | nt
O=S(=O)(c1cccs1)N1CN(Cc2ccccc2)c2nc3ccccc3nc21 | nt | 0
COc1ccccc1NC(=O)c1cccc(N2C(=O)C3CC=CCC3C2=O)c1 (stereo not drawn) | 0.35 | 1.6
CCN(CC)c1ncnc2c1cnn2C | 0.29 | 1.9
Oc1ccc2ccccc2c1CN1CCCC1 | nt | 0.95
COc1ccc(N=Cc2c(N3CCCC3)nc3c(C)cccn3c2=O)cc1 | nt | -0.3
CC(C)NC(=S)NN=C1CCCCC1 | nt | 1.3
CCn1c(/C=C/c2ccccc2)nnc1SCc1cccc([N+](=O)[O-])c1 | 0.33 | nt
COc1ccc2cc(S(=O)(=O)c3ccc(C)c(C)c3)c(=Nc3ccc4c(c3)OCCO4)oc2c1 | -0.24 | 0.75
c1ccc(-c2nn3c(CN4CCCC4)nnc3c3ccccc23)cc1 | 0.34 | -0.05
COc1ccc(CCNC(=O)NC(C)(C)C)cc1 | -0.55 | 2.8
COC(=O)c1ccc(O)c(CSc2ccccn2)c1 | -0.3 | -1.2
Cc1ccc(S(=O)(=O)NC(=O)Nc2ccc(SCc3nc(OCC(F)(F)F)cc(OCC(F)(F)F)n3)cc2)cc1 | -0.68 | nt
CCOCCC(=O)N1CCN(c2ccccc2)CC1 | 0.51 | 0.6

# Some of the entries above in another layout.
SMILES: CCC(C)N=Cc1c(O)[nH]c(=S)[nH]c1=O (stereo not drawn)
- CapD inh = -2.4
- AID504770 = 0.15

SMILES: COc1cc(-c2nc3sc4c(c3c(=O)[nH]2)CCCC4)cc(Cl)c1OCc1ccccc1F
- CapD inh = 0.08
- AID504770 = nt

SMILES: S=C1NCN(Cc2ccccc2)CN1CC1CCCO1 (stereo not drawn)
- CapD inh = 30
- AID504770 = 1.3

# In the list so far, these have a furan ring, fused or not.
structure | CapD inh | AID504770
Cc1oc(S(=O)(=O)N2CCCC2)cc1-c1nc(-c2ccc(F)cc2)no1 | -1.2 | -0.7
COC(=O)c1cc(-c2ccco2)nc2c1cnn2Cc1ccc2c(c1)OCO2 | nt | 0.1

# (more compounds)
structure | CapD inh | AID504770
CCc1ccc(NCc2c(C(=O)O)cnn2-c2ccccc2)cc1 | -0.43 | -0.15
CCCCCCc1ccc(C(=O)NCc2ccc(C(F)(F)F)cc2)cc1 | -1.7 | nt
O=C(Cn1ccccc1=S)c1ccccc1 | 0.47 | 0.5
COc1ccc(S(=O)(=O)Nc2cc(C)cc(C)c2)cc1 | 0.56 | 0.9
CCn1cc(C(=O)NCc2cccnc2)c2cc(OC)c(OC)cc2c1=O | 1 | -0.4
CC(C)(C)C(=O)Nc1ccc(F)cc1 | 0.07 | nt
CCCc1nc2ccccc2c2c1C(=O)N(NC(=O)/C=C/c1ccc(F)cc1Cl)C2=O | 25 | nt
CSC(=CC(=O)c1ccncc1)SC | -1.7 | -0.25
CCOC(=O)c1nn(-c2ccccc2)c(C(=O)OCC)c1NC(=O)C1CCCCC1 | -0.26 | -0.2
CCC(C(=O)NC1CCCC1)n1c2ccccc2c2nc(=O)cc(C)n21 (stereo not drawn) | -1.1 | -0.35
CCCCN(CC)C(=O)C1c2ccccc2C(=O)N(CCOC)C1c1ccc(F)cc1 (stereo not drawn) | 0.34 | -0.05
CCN(CC)C(=O)c1sc(NC(=O)c2c(-c3ccccc3Cl)noc2C)c(C(=O)OC)c1C | 2 | nt
Cc1ccc(N2C(=O)C(Cc3ccccc3)N=C2N2CCC(C)CC2)cc1 (stereo not drawn) | 2.2 | -2.7
CSc1nc2ccc(NC(=O)CCc3ccccc3)cc2s1 | 0.49 | -0.45
Cn1c(Cc2ccccc2)nc2c(c1=O)C1(CCCCC1)Cc1ccccc1-2 | 0.61 | nt
O=C(NCC(O)c1ccccc1)Nc1ccccc1 (stereo not drawn) | 0.36 | 0.65
O=C(CCc1nc(-c2cccs2)no1)Nc1cnc2ccccc2c1 | 4.1 | -0.85
Cn1c(C(=O)Nc2cccc(C(F)(F)F)c2)cc2c(=O)oc3ccccc3c21 | 0.32 | -1.9
CCOC(=O)C1CCN(C(=O)c2cn(-c3ccccc3)nc2-c2cccnc2)CC1 | nt | 0.35
CCOC(=O)c1ccc(CC2S/C(=N/N=C/c3ccc(O)cc3)NC2=O)cc1 (stereo not drawn) | -0.93 | 0.15

# Entries of single compounds, looked up by structure. Screens in order: CapD inh, AID504770
# O=C(Nc1ccccc1C(=O)N/N=C/c1ccc(O)c([N+](=O)[O-])c1)c1cccs1 as listed: -0.84, nt
# CN(CCOC(=O)c1ccc2c(c1)OCCO2)Cc1ccccc1 as listed: 0.66, nt

# The list continues:
compound,CapD inh,AID504770
CCOc1ccc(C2C(C(=O)Nc3ccccn3)c3ccccc3C(=O)N2CCN2CCOCC2)cc1 (stereo not drawn),-0.005,-1
N#CCn1c(COC(=O)c2cn(-c3ccccc3)nc2-c2ccc(F)cc2)nc2ccccc2c1=O,nt,0.15
CC(C)(C)NC(=O)CCCN1C(=O)/C(=C\c2ccco2)SC1=S,nt,1.5
Cc1[nH]nc2c1C(c1ccco1)N(C)C2=O (stereo not drawn),nt,-0.05
CC(=O)N1CCC(Nc2ccc(C)cc2)CC1,0.48,-0.9
CCc1nnc(NC(=O)c2ccc(S(=O)(=O)N3CCc4ccccc4C3)cc2)s1,nt,0.8
CCOc1nc2cccnc2n(Cc2cc(=O)n3ccccc3n2)c1=O,25,-0.25
O=C(CSc1nn2c(=O)cnnc2s1)N1CCc2ccccc21,-1.7,0.45
CN(C(=O)CSc1nnc(-c2cccs2)o1)C1CCCCC1,nt,1.2
Cc1cc(-c2ccco2)n(CC(=O)NCc2ccccc2)n1,0.34,0.7
Cc1cc(C(=O)N=c2sccn2Cc2ccc(Cl)cc2Cl)on1,nt,-0.2
O=C(COc1ccc(Cl)cc1)n1cnnc1,-0.3,-0.15
CN(C)/C=C/C(=O)c1cc(F)cc(F)c1O,1.8,-0.25
Nc1cc(=O)[nH]c(SCCOc2ccccc2)n1,-0.12,-0.9
Oc1ccccc1/C=N/c1ccccn1,1.5,0.45
N#CCCN(Cc1ccco1)S(=O)(=O)c1cccc(C(F)(F)F)c1,-0.34,-0.75
CN(C)N1C(=O)/C(=C\c2cc3c(cc2[N+](=O)[O-])OCO3)SC1=Nc1ccccc1,-1,nt
O=c1onc(-c2cccnc2)n1-c1cccc(C(F)(F)F)c1,0.47,0.3
CCN(Cc1ccc(OC)c(F)c1)C(=O)c1ccccc1-n1cnnn1,nt,0.75
Oc1ccc(Br)cc1-c1cc(-c2ccco2)[nH]n1,-0.43,0.1
CCOC(=O)/C(C#N)=C/c1ccc(OC(=O)c2nn(C)cc2Br)cc1,0.48,-0.35
CC1CC(NC(=O)CCn2c(=O)oc3ccccc32)CC(C)(C)C1 (stereo not drawn),3.8,-0.4
